Source: PubChem BioAssay
KSHV LANA nucl – inhibitors of KSHV LANA-nucleosome binding, primary screen, biochemical, fluorescence polarization, FITC-LANA1-23, chicken nucleosomes; FITC-LANA1-23 / chicken nucleosome fluorescence polarization; active compounds read low; z-score (concentration not given with the values); hit rate 0.3% among 51,000; AID 720717, 2013;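 active means both repeat wells score below -2 in polarization z-score versus plate sample wells, excluding overly bright wells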;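 further: 100 nL library stock added to about 30 µL; numbers are from one replicate; some results filed as inactive read as strong as hits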
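Assay system: purified chicken nucleosomes with FITC-labelled LANA N-terminal peptide (1-23) / Probe or stimulus: 50 nM FITC-LANA1-23 probe / Compound dosing: pin-transferred compound, 100 nL / Times: compound with peptide–nucleosome mix 10–45 min at room temperature / Technique: fluorescence polarization, 480 nm excitation, 535 nm parallel and perpendicular emission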
Ab BasE inh – BasE siderophore enzyme inhibitors, primary screen, biochemical, Acinetobacter baumannii ATCC 17978, fluorescence polarization; purified BasE, fluorescence polarization binding displacement; inhibition, % (no concentration beside the values); hit rate 0.1% among 84,000; AID 485350, 2010;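 active means both replicates above 25% with normal brightness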;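 further: 0% = negative plate control signal and 100% = positive plate control signal; stock transfer was 100 nL into about 30 µL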
Starred values were filed as active, the others as inactive; . = no result given; & = joins results of further samples. The list is partial. The share of hits here may be higher or lower than overall.

Compound	KSHV LANA nucl	Ab BasE inh
O=C(OCc1csc(-c2ccccc2)n1)c1ccc(S(=O)(=O)N2CCOCC2)cc1	.	2.1
CCN=c1scc(CC(=O)OCC)n1-c1c(C)cc(C)cc1C	.	2.4
COc1ccc(NC(=O)Nc2cc(F)cc(F)c2)cc1OC1CCCC1	.	-1.1
Cc1cc2nccc(C(C)Oc3ccc(Cl)cc3Cl)n2n1 (stereo not given)	0.07	.
CNS(=O)(=O)c1cn(CC(=O)N2CCCC2)cc1S(=O)(=O)NC	.	-0.1
CN(C)C(=O)n1cc(C#N)c(-c2cccs2)n1	0.37	.
CCC(C)c1ccc(C(=O)COc2ccc(-c3nnco3)cc2)cc1 (stereo not given)	.	0.8
CCOC(=O)C1=C(C)NC(C)=C(C(=O)OCC)C1C(=O)OCn1nnc2ccccc2c1=O	.	0.4
CC1C(c2ccccc2)=[N+]([O-])C(C)(C)N1O (stereo not given)	.	1.1
O=C(O)Cc1n[nH]c(=O)c2ccccc12	1.9	-5.5
COC(=O)c1c(C)[nH]c(C(=O)C(C)Sc2nnc(N)s2)c1C (stereo not given)	.	-1.0
NNC(=O)CC1CCS(=O)(=O)C1 (stereo not given)	.	2.1
Cc1ccc(NC(=O)c2ccc(NC3=NC4CS(=O)(=O)CC4S3)cc2)cc1F (stereo not given)	1.2	-4.2
CO[C@]12C[C@@H](COC(=O)c3cncc(Br)c3)CN(C)[C@@H]1Cc1cn(C)c3cccc2c13	0.27&0.23&0.13&1.1	-5.3&-5.3
NC(=O)C1CN(C(=O)Cc2ccc3c(c2)CCC3)c2ccccc2O1 (stereo not given)	.	0.9
CCOC(=O)c1sc(-n2ncc3c(=O)[nH]cnc32)nc1C	-1.1	0.3
COC(=O)c1ccc(CSc2nncn2C)cc1	.	-2.4
O=C(Cn1ncc2c([nH]c3ccccc32)c1=O)N1CCCCC1	-0.11	-3.1
COc1cc(Cc2cnc(N)nc2N)cc(OC)c1OC	-0.7&1.1&-1.1&-1	-0.2&-1.1
C=CCSc1nnc(NC(=O)CSc2nc(CCC)cc(=O)[nH]2)s1	-0.13	4.0

Retrieved by compound from the entries so far:
Compound	KSHV LANA nucl	Ab BasE inh
COc1ccc(NC(=O)Nc2cc(F)cc(F)c2)cc1OC1CCCC1	.	-1.1
Cc1cc2nccc(C(C)Oc3ccc(Cl)cc3Cl)n2n1 (stereo not given)	0.07	.

Following part:
Compound	KSHV LANA nucl	Ab BasE inh
CCOc1cc2c(cc1OCC)C1C(C(=O)Nc3ccc4c(c3)OCO4)c3ccccc3C(=O)N1CC2 (stereo not given)	0.13	2.6
CC(C)(C)N=Cc1cc(-c2ccccc2)sc1S	.	2.5
O=C(CSc1nnc2n1CCCN2)c1cccs1	0.086	2.5
O=C(Oc1c(-c2ccccc2)oc2ccccc2c1=O)c1cccnc1	-0.14	3.8
Cc1cc(C(=O)COc2ccccc2Cl)c(C)n1Cc1cccs1	.	-0.6
NS(=O)(=O)c1ccc(CNC(=O)C2CCCCC2)cc1	-0.37	-0.4
Fc1cccc(CSC2=NCN(C3CC3)CN2)c1	.	1.2
CC(=O)OCC1OC(Oc2ccccc2)C(OC(C)=O)C(OC(C)=O)C1OC(C)=O (stereo not given)	-0.42	3.0
C[C@@H]1C[C@H]2[C@@H]3CCC4=CC(=O)C=C[C@]4(C)[C@@]3(F)[C@@H](O)C[C@]2(C)[C@H]1C(=O)CO	0.17	.
CCOC(=O)Nc1ccc(C(=O)OC)cc1	-0.81	1.2
CCN(Cc1ccncc1)C(=S)NCc1ccccc1	.	0.1
FC(F)(F)c1nc(NCc2cccnc2)c2ccccc2n1	-0.56	1.6
COc1ccc(/C=C/C(=O)OCc2cc(=O)n3cc(C)ccc3n2)cc1S(=O)(=O)N1CCOCC1	.	0.7
O=C(Nc1ccc(Cl)c(Cl)c1)Oc1ccc(NC(=O)c2ccco2)cc1	.	1.8
O=C(COC(=O)c1ccc(Cl)s1)c1ccc2[nH]c(=O)[nH]c2c1	.	2.4
c1ccn2c(SCc3nnc(-c4cc5c(s4)CCCC5)o3)nnc2c1	.	0.9
O=S(=O)(NCc1ccccn1)c1ccccc1	-0.84	3.6
CCOC(=O)/C(C#N)=C/c1ccc(N2CCCCC2)o1	8	-66
O=c1[nH]c2ccccc2cc1CNc1ccccc1	-1.5	0.1
Cc1cc(C(=O)C(C)OC(=O)c2cccc(-n3cnnn3)c2)c(C)n1-c1ccccc1 (stereo not given)	.	0.4

Continuation:
Compound	KSHV LANA nucl	Ab BasE inh
Cc1csc2ncnc(Sc3ccccc3NS(=O)(=O)c3ccc(F)cc3)c12	.	3.5
N#Cc1ccccc1OCc1nc2ccccc2o1	.	-2.3
COc1ccccc1Cn1nccc1N	0.55	4.5
Cc1ccc(CO/N=C/c2cccs2)cc1	.	-2.2
Cc1ccccc1OC(=O)Cn1c(C(F)(F)F)nc2ccccc21	-0.82	.
CC(C)CNC(=O)C1CCN(S(=O)(=O)c2ccc(-n3cnnn3)cc2)CC1	-1.1	-2.1
Cc1ccc(NC(=O)/C(C#N)=C\c2ccc(Sc3nc4ccccc4[nH]3)o2)cc1C	-0.84	-5.1
CNC(=S)Nc1ccc(OC)cc1C	-0.9	2.1
OCCN1C[C@@H](O)[C@@H](O)C(O)C1CO (stereo not given in full)	0.49&-0.24	2.3
S=C1NCN(Cc2ccc3c(c2)OCO3)CN1	-0.15	1.8
CN(C)/N=C/C=C1\CCC/C(=C\C=N\N(C)C)C1=O	.	-4.8
CCOC(=O)c1ccc(C(=O)OCC)nc1	0.35	0.8
Cc1cc(C)n2nc(SCC(=O)N(C)c3c(N)n(Cc4ccccc4)c(=O)[nH]c3=O)nc2n1	.	1.5
Cn1nc(OCC(=O)N2CCOCC2)cc1C(F)(F)F	-0.058	.
O=c1c2c3c(sc2ncn1Cc1nn[nH]n1)CCCC3	0.47	1.9
O=c1[nH]cc(-c2nc3ccccc3s2)c(=O)[nH]1	.	-4.4
O=C(CN1C(=O)CCSc2ccccc21)NCCCN1CCN(C2CCCCC2)CC1	0.9	-0.3
O=C(O)COCC(=O)Nc1cc(Cl)cc(Cl)c1	-0.71	2.1
O=C(CSC1CCCCC1)Nc1cccnc1Cl	.	0.3
Cc1cccc(C(=O)NCc2n[nH]c(=S)n2-c2ccccc2)c1	2.1	-3.3

(listing goes on)
Compound	KSHV LANA nucl	Ab BasE inh
c1nc2nnnn2c2c1CCCC2	.	2.0
CN1CCSc2ccc(C(=O)NCCCN3CCCC3)cc21	-0.53	1.4
CN(C/C=C/c1ccc(N(C)C)cc1)CCc1ccccn1	-0.39	-0.9
CCN(CC(=O)Nc1ccc(S(=O)(=O)N2CCCC2)cc1)CC(=O)Nc1cccc(OC)c1	.	1.7
Cc1ccc(=O)n(S(=O)(=O)c2ccc(F)cc2F)n1	.	3.1
Cn1c(CO)nc2cc(N=Cc3ccc(O)cc3O)ccc21	0.87	0.3
Cc1ccc(C(C)C)c(OCCCCN(C)C)c1	.	1.2
O=C(COC(=O)c1cccs1)c1ccc2c(c1)OCCO2	.	1.7
COc1ccccc1NC(=O)Cc1noc(COC(=O)c2ccc(Br)o2)n1	.	-0.6
O=C(O)c1coc2ccccc12	-0.25	5.0
O=C(CCCC(=O)N1CCc2ccccc21)N1CCc2ccccc21	.	1.8
CCOC(=O)c1cc(-c2ccc(C)cc2)n(CCC(=O)N2CCN(c3ccccn3)CC2)c1C	-0.34	-0.2
CNC(=O)c1c(C)[nH]c(=S)c(C#N)c1-c1ccco1	.	-2.6
CN1CCN(NC(=O)COc2cccc(C(F)(F)F)c2)CC1	-0.3	3.1
COCCCn1c(C)nnc1SCC#N	-0.57	1.8
O=C(CCc1nnc2n(CCc3ccccc3)c(=O)c3ccccc3n12)NCc1ccco1	1.6	-1.0
O=C(c1ccccc1)c1c[nH]c(C(=O)NCc2cccnc2)c1	-0.61	.
Cc1onc(-c2ccccc2Cl)c1-c1nc2ccccc2c(=O)o1	-0.48	-2.4
O=C(Nc1ccc(-c2nc3ccccc3c(=O)[nH]2)cc1)C1CCCCC1	-0.46	-1.7
CS(=O)(=O)NCCSc1nnnn1-c1ccccc1	0.35	0.9

Four neighbouring entries from above, quoted:
Compound	KSHV LANA nucl	Ab BasE inh
c1nc2nnnn2c2c1CCCC2	.	2.0
CN1CCSc2ccc(C(=O)NCCCN3CCCC3)cc21	-0.53	1.4
CN(C/C=C/c1ccc(N(C)C)cc1)CCc1ccccn1	-0.39	-0.9
CCN(CC(=O)Nc1ccc(S(=O)(=O)N2CCCC2)cc1)CC(=O)Nc1cccc(OC)c1	.	1.7

The list continues:
Compound	KSHV LANA nucl	Ab BasE inh
O=S(=O)(NCC1COc2ccccc2O1)c1ccc(S(=O)(=O)c2ccccc2)s1 (stereo not given)	.	4.3
Cc1cc(NC(=O)CSc2cn(CC(=O)N3CCC(C)CC3)c3ccccc23)no1	-1.3	1.4
COc1ccc(NC(=O)CCC2CCCCC2)c(OC)c1	-1.5	3.4
CCn1nc(C(=O)OCC(=O)c2c[nH]c3ccccc23)c2ccccc2c1=O	.	-2.3
Cc1ccc(SCC(=O)Nc2ccccc2)cc1	-0.06	0.4
CNS(=O)(=O)c1ccc(NC(=O)c2cc3ccccc3oc2=O)cc1	1.5	-2.3
CCCN(S(=O)(=O)c1ccc(OCC)cc1)S(=O)(=O)c1cccs1	.	-5.4
CCOC(=O)c1cnc2cc(Cl)c(OC)cc2c1N1CCN(c2cccc(Cl)c2)CC1	0.45	0.8
Cn1cc(S(=O)(=O)NCc2ccc3c(c2)OCO3)c(C(F)(F)F)n1	.	-1.1
O=C1Nc2ccccc2C12NNc1ccccc1O2 (stereo not given)	.	-0.3
O=P(O)(O)C(O)(Cc1cccnc1)P(=O)(O)O	0.41&-0.68	.
O=C1CCCC2=C1C(c1ccc(O)c(O)c1)c1c(ccc3ncccc13)N2 (stereo not given)	-0.84	-1.2
Clc1ccccc1Sc1cnc2ccccc2n1	-0.71	.
COc1ccccc1-n1c(=O)c(C#N)cc2c(=O)n3ccccc3nc21	-1.4	14
O=C(C[n+]1ccccc1)Nc1ccc(C(=O)O)cc1	.	-0.8
COc1cc(/C=C2\SC(=S)N(C(C(=O)O)C(C)C)C2=O)cc(OC)c1O (stereo not given)	.	-3.6
CC(C)(C)c1nc(=S)[nH][nH]1	.	-4.7
COc1cc(C)c(CN)cc1C(C)C	-0.026	-13
CCCc1nc2c(C)cc(-c3nc4ccccc4n3C)cc2n1Cc1ccc(-c2ccccc2C(=O)O)cc1	-0.49&-0.7&0.84&-0.52	-1.5
Nc1nc(Nc2cccc3ccccc23)nc(C2CCCC2=O)n1 (stereo not given)	0.67	-1.0

More structures:
Compound	KSHV LANA nucl	Ab BasE inh
C=CCSc1nc(C)cc(=O)[nH]1	0.66	-0.4
C=CCn1c(SC)nc2c1c(=O)[nH]c(=O)n2C	0.37	-1.8
O=C(c1cc2cc(Cl)ccc2[nH]1)N1CCN(c2ccc(F)cc2)CC1	-0.28	.
CCC(C)C(N)C1=NC(C(=O)N[C@@H](CC(C)C)C(=O)N[C@H](CCC(=O)O)C(=O)N[C@H](C(=O)N[C@H]2CCCCNC(=O)[C@H](CC(N)=O)NC(=O)[C@@H](CC(=O)O)NC(=O)[C@H](Cc3cnc[nH]3)NC(=O)[C@@H](Cc3ccccc3)NC(=O)[C@H]([C@@H](C)CC)NC(=O)[C@@H](CCCN)NC2=O)[C@@H](C)CC)CS1 (stereo not given in full)	-0.54	-1.7
CC(C)(C)NC(=O)N1CCc2ccccc2C1	0.56	-1.5
CC1CN(c2nc(-c3ccc(F)cc3)cs2)CC(C)O1 (stereo not given)	1.3	4.5
COc1cc2c(cc1OC)C(c1cccs1)NCC2 (stereo not given)	.	0.0
COc1cc(N/C(N)=N/c2nc(CSc3ccc(C)cc3)cc(=O)[nH]2)cc(OC)c1	0.12	0.1
COc1ccc(Cl)cc1NC(=S)NCCn1cc(Br)cn1	-0.51	1.0
Cc1oc(C(C)(C)C)cc1C(=O)/C(C#N)=C/Nc1ccccc1	0.6	-2.5
N/C(=N\c1nc2c(c(=O)[nH]1)CCCC2)Nc1ccccc1	.	0.9
O=C(O)/C=C\C(=O)N1CCc2ccccc21	0.68	1.7
O=C(Nc1ccc(SC(F)F)cc1)C12CCC(CC1)C2	.	-1.6
CC1(C)CC2CC(C)(CN2C(=O)CCCN2C(=O)c3ccccc3C2=O)C1 (stereo not given)	0.13	1.4
O=C(N/N=C/c1ccc(N2CCOCC2)cc1)C1CC1	.	-2.9
Cc1nn(C(=O)CNC(=O)c2ccccc2)c(C)c1C	.	-1.8
CCNS(=O)(=O)c1cc(S(C)(=O)=O)ccc1Cl	-0.81	-0.8
CCOC1(NC(=O)c2ccccc2)C(C)=CC(=O)C=C1C	.	1.3
CC1(C)CC2CC(C)(CN2C(=O)COC(=O)C2CCN(c3ccc(C(F)(F)F)cn3)CC2)C1 (stereo not given)	.	0.6
O=C(Nc1nc(-c2ccco2)c(-c2ccco2)s1)OCc1ccccc1	.	-4.2
CC(C(=O)c1ccccc1)n1cnc2ccccc2c1=O (stereo not given)	0.17	-3.5
CCn1c(C2CC(=O)N(CCc3ccccc3)C2)nc2ccccc21 (stereo not given)	-0.12	-3.5
